Calb biofilm kill: clotrimazole potentiators killing C. albicans biofilm, primary screen, 4-compound mixtures. inhibition, % at 7.6 µM. C. albicans biofilm persisters + clotrimazole, fluorescence viability; primary screen in compound mixtures of four per well. actives 0.02% (n = 120,000). AID 1242, 2008;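 active means inhibition above 30.3% in the primary screen of four-compound pools, then above 30% when the compound was retested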;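 further: compounds exposed to preformed 24 h biofilms for 48 h; the number belongs to the whole pool; some results filed as inactive read as strong as hits; inactives centre near 12; 0% = biofilm with clotrimazole alone and 100% = kill control; retested singly at about 60 µM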
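Probe or stimulus – Clotrimazole 50 µg/mL co-treatment · System – C. albicans biofilms · Schedule – 24 h biofilm formation, then 48 h compound exposure, 37 °C · Evaluation – percent inhibition of biofilm viability · Technique – 2-h Alamar Blue fluorescence, 535/590 nm excitation/emission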
An asterisk follows results filed as active. These rows are one share of the data, so the mix of outcomes need not match the whole.

SMILES	Calb biofilm kill
COc1cccc(CN2CCNC(=O)C2CC(=O)N(Cc2cnn(C)c2)C(C)C)c1 (stereo not given)	26
CCOc1ccc(C(=O)C(CCC(CN(C)C)C(=O)c2ccc(OCC)cc2)CN(C)C)cc1 (stereo not given)	17
O=C(Nc1nnc(-c2ccccn2)o1)c1ccc(Br)cc1	15
COc1ccc(CCNC(=O)C/C(C)=N/NC(=O)C(c2ccccc2)c2ccccc2)cc1OC	34
COc1cc(/C=N/NC(=O)C(C)Nc2n[nH]c(=O)[nH]c2=O)ccc1O (stereo not given)	2
C=CCSc1ncnc2sc(C)c(C)c12	16
Cc1ccc(-c2[nH][nH]c(=O)c(=O)c2N=Nc2ccccc2)cc1	7
O=c1[nH]cnc(O)c1C(c1ccc2c(c1)OCO2)c1c(O)nc[nH]c1=O	18
Cc1cc(NC(=O)C(C)C)n(-c2nc3ccccc3s2)n1	7
C=CCN=C1CC(C)(C)CC(=O)/C1=C(\O)CCCN1C(=O)c2ccccc2C1=O	13
CCOC(=O)C1(CCOC)CCN(Cc2ccc3nonc3c2)CC1	27
COC(=O)[C@H](Cc1ccccc1)NC(=O)NCCc1ccc(F)cc1	14
CN(C)S(=O)(=O)c1ccc(C(=O)Nc2nnc(SCc3ccccc3)s2)cc1	8
O=C(COC(=O)CNC(=O)c1cccc([N+](=O)[O-])c1)NCc1ccco1	4
Nc1nc(N)c2c(n1)CCCC2	5

An excerpt from further up, as a working copy:
SMILES	Calb biofilm kill
C=CCSc1ncnc2sc(C)c(C)c12	16
Cc1ccc(-c2[nH][nH]c(=O)c(=O)c2N=Nc2ccccc2)cc1	7
O=c1[nH]cnc(O)c1C(c1ccc2c(c1)OCO2)c1c(O)nc[nH]c1=O	18
Cc1cc(NC(=O)C(C)C)n(-c2nc3ccccc3s2)n1	7
C=CCN=C1CC(C)(C)CC(=O)/C1=C(\O)CCCN1C(=O)c2ccccc2C1=O	13
CCOC(=O)C1(CCOC)CCN(Cc2ccc3nonc3c2)CC1	27

Other results:
SMILES	Calb biofilm kill
N#Cc1ccccc1Oc1ccccc1C=O	-7
CCCCNc1nc(N)ncc1[N+](=O)[O-]	5
COc1cc(/C=C(\C#N)C(=O)NCC2CCCO2)ccc1OCC(N)=O (stereo not given)	22
CC(C)(C)c1ccc(C(=O)NCC(=O)OCC(=O)Nc2ccccc2[N+](=O)[O-])cc1	16
Cc1ccccc1C(=O)Nc1ccccc1Sc1ccccc1	1
CCc1cccc(C)c1NC(=S)N1CCCCC1c1cccnc1 (stereo not given)	16
COc1cccc(C2C(C#N)=C(N)N(c3ncn[nH]3)C3=C2C(=O)CCC3)c1 (stereo not given)	11
Cc1c(NC(=O)CN2c3cccc4cccc(c34)S2(=O)=O)c(=O)n(-c2ccccc2)n1C	18
O=[N+]([O-])c1ccc2cn[nH]c2c1	1
S=C1SCN(Cc2cccnc2)CN1Cc1ccccc1	14
CCOc1ccc(CC(=O)C2=C(N3CCOCC3)CC(C)(C)CC2=O)cc1OCC	9
COc1ccccc1CNC(=O)N/C=C/c1ccc(Cl)cc1	8
CN(c1cccc(NC(=O)c2ccc(C(C)(C)C)cc2)c1)S(C)(=O)=O	5
C[C@H](NC(=O)NCc1ccc(F)cc1)C(=O)O	17
C=CCN1C(=O)C(Cc2ccccc2Cl)SC1=Nc1ccc(C(=O)O)cc1 (stereo not given)	19
CC(=O)CC(=O)Nc1ccc(C(N)=O)cc1	8
CN1C(=O)/C(=N/OC(=O)c2ccccc2Br)c2ccccc21	14
CCCCNC(=S)N(C)N=C1CCC(c2ccccc2)CC1 (stereo not given)	16
Cn1c(=O)c2ncn(CC(=O)O)c2n(C)c1=O	12
Cc1cc(=O)n2cccc(O)c2n1	20
CC(C)C(=O)NC(c1ccccc1)c1cc([N+](=O)[O-])c2cccnc2c1O (stereo not given)	14
COc1ccc(-n2nc3cc(C)c(NC(C)=O)cc3n2)cc1	4
Cc1onc(-c2ccccc2)c1C(=O)N1CCC(C)CC1	14
CCN(CC(=O)Nc1cc(Cl)ccc1OC)CC(=O)NC1CCS(=O)(=O)C1 (stereo not given)	19
O=C(NNC(=O)C1CCN(Cc2ccccc2)CC1)c1cccs1	15
Cc1cc2oc(=O)cc(CSc3nnc(-c4cccs4)o3)c2cc1C(C)C	7
CC(C)NC(=S)N1CCN(c2ncccn2)CC1	6
Cc1cc(-c2n[nH]c(=S)n2/N=C/C=C/c2ccco2)n[nH]1	9
Cc1ccc2cccc(OCC(=O)N3CC(C)CC(C)C3)c2n1 (stereo not given)	10
Cc1ccc(CNC(=O)CCc2ccc(S(=O)(=O)NCC(C)C)cc2)cc1	13
CC(OC(=O)c1cccc(N2C(=O)c3ccccc3C2=O)c1)C(=O)Nc1ccc(N(C)C)cc1 (stereo not given)	12
CCc1ccc(-c2ccc(SCC(=O)NCC3CCCO3)nn2)cc1 (stereo not given)	18
CC1CCCCN1C(=O)COC(=O)/C=C/c1ccc2ccccc2n1 (stereo not given)	14
C#CCOc1nc2c(c(=O)n(C)c(=O)n2C)n1Cc1ccccc1	19
Cc1nc(NCC2CC2)c2nnn(Cc3ccccc3)c2n1	6
NC(=O)COC(=O)/C=C/c1ccc(S(=O)(=O)N2CCCCCC2)cc1	11
O=C(O)CNS(=O)(=O)/C=C/c1ccccc1	15
CCN1CCN(C(=O)c2ccc(Sc3ccccc3Cl)c([N+](=O)[O-])c2)CC1	15
O=C(CSCc1ccc(Cl)cc1)NN=C1CCCCCC1	6
Cc1ccc(S(=O)(=O)NC(N)=NCCc2ccc(Cl)cc2)cc1	13
Cc1ccc(C(=O)N2NC(c3ccccc3F)C3C(=O)N(c4cccc(C)c4)C(=O)C32)cc1 (stereo not given)	7
COc1ccc(-n2c(SCC(=O)Nc3cccc(S(N)(=O)=O)c3)nc3ccccc3c2=O)cc1OC	11
COc1ccc(-c2cc(N3C(=O)Nc4ccccc4N3O)n[nH]2)c(OC)c1	3
CCC(=O)Nc1ccc(Cl)c(NC(=S)NC(=O)c2ccco2)c1	16
Cc1cccc(NC(=S)NC(=O)c2ccc(Br)o2)c1	14
Cc1ccc(NS(=O)(=O)c2cccc(C(=O)O)c2)cc1S(=O)(=O)N1CCCCC1	-3
COC(=O)c1cc(C(=O)OCC(=O)NCc2ccc3c(c2)OCO3)cc([N+](=O)[O-])c1	5
CCCCC1N2CC3([N+](=O)[O-])CN1CC([N+](=O)[O-])(C2)C3(C)C (stereo not given)	14
O=C(Oc1cccc2cccnc12)c1ccco1	10
S=c1[nH]nc(-c2cccs2)n1C1CCCCC1	9
Cc1ccc(C(=O)N2CCN(c3ccc([N+](=O)[O-])c(N4CCOCC4)c3)CC2)cc1	13
CC1CCN(c2ccc([N+](=O)[O-])cn2)CC1	10
Cn1c(SCC(=O)Nc2cc(Cl)cc(Cl)c2)nnc1-c1ccc2nonc2c1	17
O=C(Cn1c(-c2ccccc2Cl)nc2ccccc21)Nc1cccc(Cl)c1	18
O=C(Cn1c2c(c(-c3ccccc3Cl)cc1=O)CCC2)NCCCN1CCOCC1	28
Cc1ccccc1NC(=S)NCc1ccc2c(c1)cc(C)n2C	18
Cc1ccc(NC(=O)c2ccc(OC(F)(F)F)cc2)cc1S(=O)(=O)N(C)C	20
O=C(CN(Cc1ccc(F)cc1)S(=O)(=O)c1ccc(S(=O)(=O)N2CCOCC2)cc1)Nc1ccccc1	10
O=C(c1cccc2nc3ccccc3nc12)N1CCOCC1	14
C=CCNC(=O)c1sccc1Oc1ccc(F)cc1[N+](=O)[O-]	9

Ordered by SMILES length (rising): part of the list above
SMILES	Calb biofilm kill
O=C(Oc1cccc2cccnc12)c1ccco1	10
S=c1[nH]nc(-c2cccs2)n1C1CCCCC1	9
CC1CCN(c2ccc([N+](=O)[O-])cn2)CC1	10
Cc1ccccc1NC(=S)NCc1ccc2c(c1)cc(C)n2C	18
Cc1ccc(C(=O)N2CCN(c3ccc([N+](=O)[O-])c(N4CCOCC4)c3)CC2)cc1	13
O=C(CN(Cc1ccc(F)cc1)S(=O)(=O)c1ccc(S(=O)(=O)N2CCOCC2)cc1)Nc1ccccc1	10

Following part.
SMILES	Calb biofilm kill
CCc1ccc(N2C(=O)CN(Cc3cc(OC)c(OC)c(OC)c3)C2=S)cc1	12
Oc1ccc(-c2nccc(-c3ccc(Cl)cc3)n2)cc1	2
CCCCNC(=S)NNc1c(Cl)cc(Cl)cc1Cl	16
CCOC(=O)CSc1cc(CS(C)(=O)=O)nc(-c2ccccn2)n1	13
NC(=O)C1CCN(C(=O)CCCCCn2c(=O)[nH]c3ccsc3c2=O)CC1	-10
CCOc1ccc2nc(Cl)c(C3CC(c4ccco4)=NN3S(=O)(=O)c3ccccc3)cc2c1 (stereo not given)	6
COc1ccc(NC(=O)CCNS(=O)(=O)c2ccc3c(c2)c(=O)n(C)c(=O)n3C)c(OC)c1	7
COC(CNC(=O)C1CCCN(S(=O)(=O)c2c(C)noc2/C=C/c2cccs2)C1)OC (stereo not given)	16
CCN(CC)CCNCc1ccc(Br)cc1OCC(=O)NCc1ccccc1	9
COc1cc2ccccc2cc1C(=O)NCC(c1cccs1)N(C)C (stereo not given)	11
CN1CCN(CC(O)COc2ccc(OCC(O)CN3CCN(C)CC3)cc2)CC1 (stereo not given)	10
CC1CCN(S(=O)(=O)c2cccc(C(=O)NCc3ccco3)c2)CC1	4
COc1cccc(-n2nc(C(C)=O)c(C#N)c2-c2ccco2)c1	7
COCCN1CCN(Cc2cn(C)nc2-c2cccc(Cl)c2)CC1	10
C=CCOc1ccccc1CN1CCC(CO)(CCOc2ccccc2)CC1	2
C/C(=N\Nc1ccc(C(=O)O)cc1)c1nc2ccccc2n1C	6
O=C(NC(=S)Nc1ccc(CN2CCOCC2)cc1)c1cccc([N+](=O)[O-])c1	21
Cc1cnc(NC(=O)CSc2ncn(-c3ccccc3)n2)s1	16
N#Cc1cccnc1Nc1cccc(Cl)c1	7
Cc1ccc(OCC(=O)NCc2cccnc2)cc1	6
O=C(NCCCn1ccnc1)C(=O)NCC1OCCN1S(=O)(=O)c1ccc(Cl)cc1 (stereo not given)	18
COc1cccc(C2C([N+](=O)[O-])=C(N)Oc3cc(C)oc(=O)c32)c1 (stereo not given)	30
C[C@@H]1CC=C[C@H]2[C@H]1C(=O)N(Cc1ccccc1)[C@H]2c1ccc2ccccc2c1Br	12
CCOc1ccc(NC(=O)COc2ccc(C(=O)NCCc3ccccc3)cc2)cc1	4
CCCC1(C(=O)OCC)NC(c2ccc(OC)cc2OC)C2C(=O)N(c3ccc4c(c3)OCCO4)C(=O)C21 (stereo not given)	11
O=C(O)c1cccc(N/N=C/c2sc(N3CCOCC3)nc2-c2ccccc2)c1	4
Cc1ccc(Nc2nc(C)cs2)cc1	23
O=C(CN1C(=O)/C(=C\c2ccc(C(F)(F)F)cc2)Sc2ccccc21)NCc1ccco1	-15
CC(C)Oc1cccc(C(=O)C2CCCN(Cc3cnc(N4CCOCC4)s3)C2)c1 (stereo not given)	7
CSc1ccc(CN2C(=O)NC3(CCCCCCC3)C2=O)cc1	4
NS(=O)(=O)c1ccc(CCNC(=S)Nc2ccc(S(N)(=O)=O)cc2)cc1	7
Cc1cccc(C)c1-n1c(C)nn(CC2CC2)c1=O	9
O=C(CN1C(=O)c2ccccc2C1=O)NNC1=NS(=O)(=O)c2ccccc21	11
CCN(CC)C(=O)Cn1c(=O)n(-c2ccc(CC(=O)NCc3ccccc3)cc2)c(=O)c2sccc21	0
O=C(COc1cccc(-n2cnnn2)c1)NC1CCCCC1	7
Cn1ccc(C(=O)Oc2ccc(C(=O)Nc3ccc(F)cc3F)cc2)n1	13
CCN1CCN(c2ccc(NC(=O)c3ccc4c(c3)[nH]c(=O)n4Cc3ccc(OC)cc3)cc2)CC1	9
COC(C[C@H]1O[C@H]1[C@H](O)[C@H](C)OCc1ccccc1)OC	18
CN(C)c1ccc2c3c(ccc(N(C)C)c13)C(=O)OC2	9
CCCC(=O)Nc1ccc2oc(-c3cncc(Br)c3)nc2c1	5
FC(F)(F)c1cnc(N2CCN(C(=S)NCc3ccccc3)CC2)c(Cl)c1	13
CCOc1c(Cl)cc(CNc2ccc(S(N)(=O)=O)cc2)cc1OC	12
CCC(=O)Nc1ccc(NC(=S)NC(=O)c2oc3ccccc3c2C)cc1	6
CS(=O)(=O)N(CC(N)=O)c1cccc(Br)c1	10
Cc1ccc(C)c(-n2c(=O)c(C#N)cc3c(=O)n4ccccc4nc32)c1	3
CNC(=O)c1ccccc1Sc1ccccc1CO	21
CNC(=O)c1cc2cc(Br)ccc2s1	12
NC(=O)C[C@H]1NC(=O)[C@H](CCC(=O)O)NC(=O)c2cc([N+](=O)[O-])cc(I)c2NCCC[C@@H](C(N)=O)NC1=O	14
COc1ccc(NC(=O)COC(=O)COc2cccc(Br)c2)cc1OC	1
Cc1cc(-c2nnc(SCC(=O)c3ccc(F)cc3)o2)no1	12
O=C(CSc1ncc(C(F)(F)F)cc1Cl)NCC1CCCO1 (stereo not given)	15
COC(=O)C12CCC3(SCCS3)C(C(=O)OC)(CCC13SCCS3)C2	4
O=C(COC(=O)Cc1ccc(Cl)cc1)Nc1ccccc1F	12
O=c1ccc(=O)n(-c2ccccc2)[nH]1	31
O=C(O)c1ccc(N2CCCCC2)cc1O	0
Cc1ccc(-c2ccnc(-c3ccc(O)cc3)n2)cc1	-12
O=C(CCc1nc2ccccc2c(=O)[nH]1)NCc1ccco1	23
Cn1c(=O)[nH]c(=O)c2c1nc(N1CCCCC1)n2C/C=N/NC(=O)c1cc(Br)ccc1O	16
CCCN1CCC(=O)N([C@H](CSc2ccc(Br)cc2)Cc2ccccc2)CC1	16

Assay outcomes from PubChem BioAssay.
